Source: PubChem BioAssay (Broad Institute)
Env fusion inh = inhibitors of HIV-1 Env-driven cell-cell fusion, primary screen, HeLa-JRFL effector, CEM21 target cells, luciferase; AID 651610, 2012; inhibition, % at 12.3 µM; 360,000 tested, 1.1% active;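 active = mean replicate inhibition score of at least 50 and every replicate individually at or above 50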;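 note: 0% = plate neutral controls and 100% = maraviroc near 300 nM; one replicate is shown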
UUG fidelity = modulators of yeast start codon fidelity, primary screen, whole organism, S. cerevisiae, single point, plate reader | AID 602363, 2012 | 350,000 tested, 0.13% active | S. cerevisiae UUG-firefly luciferase reporter, luminescence/redox ratio | activity score, % at 18.7 µM;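 active = replicate mean at a twofold rise or more, about +100% in these data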;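 note: firefly luciferase made from a UUG start codon reports start codon fidelity; reporter light over untreated wells divided by growth signal over untreated wells; some hits fall short of that in this replicate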
Active calls of the source: *; [ ] = dose if it differs, or a comment. Not all compounds are listed. The share of hits here may be higher or lower than overall.

For C[C@H]1CCCCO[C@H](CN(C)C)[C@@H](C)CN([C@@H](C)CO)C(=O)c2cc(N(C)C)ccc2O1 the results were Env fusion inh -9[16.7 µM] and UUG fidelity 1.
COc1ccc(NC(=O)N(C)C[C@H]2Oc3ccc(NC(=O)Nc4cccc5ccccc45)cc3CC(=O)N([C@@H](C)CO)C[C@@H]2C)cc1 was read as Env fusion inh 3[16.7 µM] and UUG fidelity 25.
For C[C@@H]1CN([C@@H](C)CO)C(=O)c2cc(C#CC3CCCCC3)cnc2O[C@H]1CN(C)C(=O)NC1CCCC1 the results were Env fusion inh -12[16.7 µM] and UUG fidelity 34.
For COCC#Cc1cnc2c(c1)C(=O)N([C@@H](C)CO)C[C@H](C)[C@@H](CN(C)C(=O)Cc1ccncc1)O2 the results were Env fusion inh -5[16.7 µM] and UUG fidelity 0.
`CCCC#Cc1cnc2c(c1)C(=O)N([C@@H](C)CO)C[C@H](C)[C@H](CN(C)C(=O)Nc1ccccc1OC)O2` gave Env fusion inh -19[16.7 µM] and UUG fidelity 4.
Cc1ccc(-c2cnc3c(c2)C(=O)N([C@H](C)CO)C[C@@H](C)[C@@H](CN(C)Cc2ccccc2C(=O)O)O3)cc1 was read as Env fusion inh -9[16.7 µM] and UUG fidelity 34.
For COCCOC(=O)N1C(=O)[C@@]2(c3cc(C#CC4(O)CCCCCC4)ccc31)[C@H](c1ccccc1OCCO)N1[C@H](c3ccccc3)[C@H](c3ccccc3)OC(=O)[C@H]1[C@@H]2C(=O)N1CCc2cc(OC)c(OC)cc2C1 the results were Env fusion inh 2[16.7 µM] and UUG fidelity 12.
For C[C@H](CO)N1C[C@H](C)[C@@H](CN(C)S(=O)(=O)c2ccc(F)cc2)Oc2cc(C3=CCCC3)ccc2S1(=O)=O the results were Env fusion inh 45[16.7 µM] and UUG fidelity -23.
Screening COc1ccc(-c2cn(CC[C@H]3CC[C@@H](NC(=O)NC(C)C)[C@H](CO)O3)nn2)cc1 returned Env fusion inh -15[16.7 µM] and UUG fidelity -4.
`O=C1O[C@@H](c2ccccc2)[C@@H](c2ccccc2)N2[C@@H](c3ccc(O)cc3)[C@]3(C(=O)Nc4ccc(C#CC5=CCCCC5)cc43)[C@@H](C(=O)N3CCCCCCC3)[C@H]12` gave Env fusion inh -1[16.7 µM] and UUG fidelity 9.
`COc1ccc(CN(C)C[C@H]2OCCCC[C@@H](C)Oc3ccc(NC(=O)Nc4ccccc4)cc3C(=O)N([C@H](C)CO)C[C@H]2C)cc1` gave Env fusion inh 16[16.7 µM] and UUG fidelity 12.
`CCCNC(=O)N(C)C[C@H]1Oc2cc(C3=CCCCC3)ccc2S(=O)(=O)N([C@@H](C)CO)C[C@H]1C` gave Env fusion inh -19[16.7 µM] and UUG fidelity 8.
C[C@H]1CCCCO[C@H](CN(C)C(=O)CCCN(C)C)[C@@H](C)CN([C@@H](C)CO)C(=O)c2cc(NC(=O)Nc3ccc(C(F)(F)F)cc3)ccc2O1 was read as Env fusion inh 10[16.7 µM] and UUG fidelity 17.
For CO[C@H]1CN(C)C(=O)c2ccc(NS(=O)(=O)c3ccccc3Cl)cc2OC[C@H](C)NC[C@H]1C the results were Env fusion inh -24[16.7 µM] and UUG fidelity -1.
Screening C[C@H]1CN([C@@H](C)CO)C(=O)c2cc(C#Cc3ccccc3)cnc2O[C@H]1CN(C)C(=O)c1ccccc1F returned Env fusion inh -3[16.7 µM] and UUG fidelity -10.
Screening CCCN(C)C[C@@H]1OCCCC[C@H](C)Oc2ccc(NC(=O)Cc3ccccc3)cc2C(=O)N([C@@H](C)CO)C[C@@H]1C returned Env fusion inh -11[16.7 µM] and UUG fidelity 7.
For COc1ccc(NC(=O)Nc2ccc3c(c2)C(=O)N([C@H](C)CO)C[C@@H](C)[C@H](CN(C)S(=O)(=O)c2ccc(Cl)cc2)OCCCC[C@H](C)O3)cc1 the results were Env fusion inh 23[16.7 µM] and UUG fidelity -14.
O=C(C[C@H]1C=C[C@@H](NS(=O)(=O)c2ccc(F)cc2)[C@@H](CO)O1)N1CCN(c2ccccc2)CC1 was read as Env fusion inh 3[16.7 µM] and UUG fidelity -7.
`C[C@H](CO)N1C[C@H](C)[C@@H](CN(C)Cc2ccc(C(=O)Nc3ccccc3N)cc2)Oc2ccc(NC(=O)C3CCCCC3)cc2CC1=O` gave Env fusion inh -2[16.7 µM] and UUG fidelity 2.
`CC(C)NC(=O)N(C)C[C@H]1Oc2ccc(NS(=O)(=O)c3cccs3)cc2C(=O)N([C@H](C)CO)C[C@H]1C` gave Env fusion inh 28[16.7 µM] and UUG fidelity 5.

Overlap with the part before: two compounds, then new ones.
`C[C@H](CO)N1C[C@H](C)[C@@H](CN(C)Cc2ccc(C(=O)Nc3ccccc3N)cc2)Oc2ccc(NC(=O)C3CCCCC3)cc2CC1=O` gave Env fusion inh -2[16.7 µM] and UUG fidelity 2.
`CC(C)NC(=O)N(C)C[C@H]1Oc2ccc(NS(=O)(=O)c3cccs3)cc2C(=O)N([C@H](C)CO)C[C@H]1C` gave Env fusion inh 28[16.7 µM] and UUG fidelity 5.
For COc1cccc(NC(=O)N(C)C[C@H]2Oc3cc(/C=C/c4ccccc4)ccc3S(=O)(=O)N([C@@H](C)CO)C[C@@H]2C)c1 the results were Env fusion inh 2[16.7 µM] and UUG fidelity -3.
`C[C@@H]1CN([C@@H](C)CO)C(=O)c2cc(-c3ccncc3)cnc2O[C@H]1CN(C)C(=O)c1ccncc1` gave Env fusion inh -18[16.7 µM] and UUG fidelity -9.
CS(=O)(=O)Nc1ccc2c(c1)[C@@H]1C[C@H](CC(=O)NC3CCCCC3)O[C@@H](CO)[C@@H]1O2 was read as Env fusion inh -17[16.7 µM] and UUG fidelity -6.
For CCCNC(=O)C[C@H]1C[C@@H]2c3cc(NC(=O)c4cccnc4)ccc3O[C@@H]2[C@@H](CO)O1 the results were Env fusion inh 3[16.7 µM] and UUG fidelity -12.
Screening CN1C(=O)c2cc(NC(=O)C3CCCCC3)ccc2OC[C@@H]2O[C@H](CC(=O)NCCc3ccncc3)CC[C@@H]21 returned Env fusion inh -9[16.7 µM] and UUG fidelity 6.
Screening CN(C)CC(=O)N[C@H]1C=C[C@@H](CC(=O)NCc2ccccc2F)O[C@H]1CO returned Env fusion inh -2[16.7 µM] and UUG fidelity -10.
For CCCC#Cc1ccc2c(c1)O[C@H](CN(C)CCC)[C@H](C)CN([C@@H](C)CO)S2(=O)=O the results were Env fusion inh -36[16.7 µM] and UUG fidelity 19.
Screening C[C@@H]1CCCCO[C@@H](CN(C)C(=O)CCC(F)(F)F)[C@@H](C)CN([C@H](C)CO)C(=O)c2cc(NS(C)(=O)=O)ccc2O1 returned Env fusion inh 2[16.7 µM] and UUG fidelity 1.
`CC(=O)N(C)C[C@H]1Oc2cc(C#Cc3ccccc3F)ccc2S(=O)(=O)N([C@H](C)CO)C[C@@H]1C` gave Env fusion inh 16[16.7 µM] and UUG fidelity 11.
For C[C@H](NC(=O)C[C@H]1C=C[C@H](NS(=O)(=O)c2cccc(F)c2)[C@H](CO)O1)c1ccccc1 the results were Env fusion inh 14[16.7 µM] and UUG fidelity 6.
Screening Cc1ccc(S(=O)(=O)Nc2ccc3c(c2)C(=O)N([C@H](C)CO)C[C@@H](C)[C@@H](CN(C)C(=O)NC(C)C)OCCCC[C@H](C)O3)cc1 returned Env fusion inh -30[16.7 µM] and UUG fidelity 11.
O=S(=O)(N[C@@H]1CC[C@@H](CCn2cc(C3CC3)nn2)O[C@H]1CO)c1ccc(F)cc1 was read as Env fusion inh 8[16.7 µM] and UUG fidelity 5.
C[C@H](CO)N1C[C@H](C)[C@H](CN(C)S(=O)(=O)c2ccc(F)cc2)OCCCC[C@H](C)Oc2ccc(NC(=O)c3ccccc3)cc2C1=O was read as Env fusion inh -9[16.7 µM] and UUG fidelity 11.
Screening O=C(C[C@H]1C=C[C@@H](NS(=O)(=O)c2ccc(F)cc2)[C@H](CO)O1)N1CCC(Cc2ccccc2)CC1 returned Env fusion inh 11[16.7 µM] and UUG fidelity 13.
For COc1ccc(NC(=O)N(C)C[C@@H]2OCCCC[C@@H](C)Oc3ccc(NS(=O)(=O)c4ccc(OC)cc4)cc3C(=O)N([C@@H](C)CO)C[C@H]2C)cc1 the results were Env fusion inh -59[16.7 µM] and UUG fidelity 8.
For CCC(=O)N(C)C[C@H]1Oc2ncc(C#C[C@H](C)O)cc2C(=O)N([C@@H](C)CO)C[C@H]1C the results were Env fusion inh 11[16.7 µM] and UUG fidelity 5.
Screening COCC(=O)Nc1ccc2c(c1)[C@H]1C[C@@H](CC(=O)NC3CCCCC3)O[C@@H](CO)[C@H]1O2 returned Env fusion inh 0[16.7 µM] and UUG fidelity 9.
CCOC(=O)N(C)C[C@@H]1OCc2cn(nn2)CCCC(=O)N([C@H](C)CO)C[C@H]1C was read as Env fusion inh 57* and UUG fidelity -9.
Cc1ccc(S(=O)(=O)N[C@@H]2CC[C@H](CCn3cc(-c4cccc(F)c4)nn3)O[C@H]2CO)cc1 was read as Env fusion inh -8[16.7 µM] and UUG fidelity -11.
For CO[C@H]1CN(C)C(=O)c2ccc(NC(=O)NC(C)C)cc2OC[C@H](C)N(CCC(F)(F)F)C[C@@H]1C the results were Env fusion inh -4[16.7 µM] and UUG fidelity -4.

Taken from the entries so far for reference:
Screening CN1C(=O)c2cc(NC(=O)C3CCCCC3)ccc2OC[C@@H]2O[C@H](CC(=O)NCCc3ccncc3)CC[C@@H]21 returned Env fusion inh -9[16.7 µM] and UUG fidelity 6.
Screening CN(C)CC(=O)N[C@H]1C=C[C@@H](CC(=O)NCc2ccccc2F)O[C@H]1CO returned Env fusion inh -2[16.7 µM] and UUG fidelity -10.
For CCCC#Cc1ccc2c(c1)O[C@H](CN(C)CCC)[C@H](C)CN([C@@H](C)CO)S2(=O)=O the results were Env fusion inh -36[16.7 µM] and UUG fidelity 19.

Other structures follow:
`C[C@H]1CCCCO[C@H](CN(C)Cc2ccc3c(c2)OCO3)[C@@H](C)CN([C@@H](C)CO)C(=O)c2cc(NC(=O)c3ccncc3)ccc2O1` gave Env fusion inh 1[16.7 µM] and UUG fidelity 9.
Cc1ccc(S(=O)(=O)Nc2ccc3c(c2)C(=O)N([C@H](C)CO)C[C@@H](C)[C@H](CN(C)CC2CCCCC2)OCCCC[C@@H](C)O3)cc1 was read as Env fusion inh -4[16.7 µM] and UUG fidelity 33.
Screening C[C@H]1CN([C@@H](C)CO)C(=O)c2cc(NC(=O)c3ccncc3)ccc2O[C@H]1CN(C)Cc1ccc(C(F)(F)F)cc1 returned Env fusion inh 27[16.7 µM] and UUG fidelity 12.
C[C@H](CO)N1C[C@H](C)[C@H](CN(C)S(=O)(=O)c2ccccc2)Oc2ncc(-c3ccccc3)cc2C1=O was read as Env fusion inh -5[16.7 µM] and UUG fidelity -11.
For COCC(=O)Nc1ccc2c(c1)C(=O)N(C)[C@H]1CC[C@@H](CC(=O)NCc3ccccc3)O[C@@H]1CO2 the results were Env fusion inh -4[16.7 µM] and UUG fidelity -3.
Screening CC(C)(C)OC(=O)N1CCN(Cc2ccc(F)c(B(O)O)c2)CC1 returned Env fusion inh 0 and UUG fidelity -8.
Screening CC(C)NC(=O)N(C)C[C@H]1OCCCC[C@H](C)Oc2ccc(NS(=O)(=O)c3ccc(Cl)cc3)cc2C(=O)N([C@@H](C)CO)C[C@@H]1C returned Env fusion inh -71[16.7 µM] and UUG fidelity -2.
Screening COCCNC(=O)C[C@@H]1C[C@H]2c3cc(NC(=O)c4cccnc4)ccc3O[C@H]2[C@H](CO)O1 returned Env fusion inh 11[16.7 µM] and UUG fidelity -7.
For C[C@H](CO)N1C[C@H](C)[C@@H](CN(C)Cc2ccccc2)Oc2ccc(NC(=O)c3ccncc3)cc2C1=O the results were Env fusion inh -13[16.7 µM] and UUG fidelity -7.
`C[C@@H]1CN([C@@H](C)CO)C(=O)c2cc(NS(=O)(=O)c3ccc(F)cc3)ccc2O[C@@H]1CN(C)S(=O)(=O)c1ccc(F)cc1` gave Env fusion inh 0[16.7 µM] and UUG fidelity 1.
C[C@H](CO)N1C[C@H](C)[C@@H](CN(C)S(=O)(=O)c2cccs2)OCCCC[C@H](C)Oc2ccc(NS(=O)(=O)c3cccs3)cc2C1=O was read as Env fusion inh -53[16.7 µM] and UUG fidelity -3.
For O=C(C[C@H]1CC[C@H](NC(=O)CN2CCOCC2)[C@H](CO)O1)NCCc1ccccc1 the results were Env fusion inh -20[16.7 µM] and UUG fidelity -8.
COc1ccccc1NC(=O)N[C@H]1CC[C@@H](CC(=O)N[C@H](C)c2ccccc2)O[C@H]1CO was read as Env fusion inh 9[16.7 µM] and UUG fidelity 0.
Screening COCC(=O)N(C)C[C@H]1Oc2cc(C#CCC(C)C)ccc2S(=O)(=O)N([C@H](C)CO)C[C@@H]1C returned Env fusion inh -27[16.7 µM] and UUG fidelity -4.
`CCCc1cn(CC[C@@H]2CC[C@@H](NC(=O)C3CC3)[C@H](CO)O2)nn1` gave Env fusion inh 17[16.7 µM] and UUG fidelity 7.

By substructure: the entries above with a CF3 group
C[C@H]1CCCCO[C@H](CN(C)C(=O)CCCN(C)C)[C@@H](C)CN([C@@H](C)CO)C(=O)c2cc(NC(=O)Nc3ccc(C(F)(F)F)cc3)ccc2O1 was read as Env fusion inh 10[16.7 µM] and UUG fidelity 17.
Screening C[C@@H]1CCCCO[C@@H](CN(C)C(=O)CCC(F)(F)F)[C@@H](C)CN([C@H](C)CO)C(=O)c2cc(NS(C)(=O)=O)ccc2O1 returned Env fusion inh 2[16.7 µM] and UUG fidelity 1.
For CO[C@H]1CN(C)C(=O)c2ccc(NC(=O)NC(C)C)cc2OC[C@H](C)N(CCC(F)(F)F)C[C@@H]1C the results were Env fusion inh -4[16.7 µM] and UUG fidelity -4.
Screening C[C@H]1CN([C@@H](C)CO)C(=O)c2cc(NC(=O)c3ccncc3)ccc2O[C@H]1CN(C)Cc1ccc(C(F)(F)F)cc1 returned Env fusion inh 27[16.7 µM] and UUG fidelity 12.
